# HIV Env fusion: inhibitors of HIV-1 Env-driven cell-cell fusion, primary screen, HeLa-JRFL effector, CEM21 target cells, luciferase; 1.1% of 360,000 active; inhibition, % at 12.3 µM;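 active = mean replicate inhibition score of at least 50 and every replicate individually at or above 50; inconclusive = only one of the two criteria met; inactive = mean below 50 and not all replicates reaching 50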;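 note: 0% = plate neutral controls and 100% = maraviroc near 300 nM; one replicate is shown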
# MT1-MMP act inh: blockers of MT1-MMP proenzyme processing, primary screen, HT1080 RFP-PRO-GFP cells, GFP/RFP fluorescence. AID 651647, 2012. Matrix metalloproteinase-14 (Homo sapiens), P50281. GFP/RFP ratio fluorescence, overnight; percent of plate control window, DMSO zero. GFP/RFP ratio change, % at 20 µM. 0.061% of 360,000 active;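 active = GFP/RFP ratio change of at least 30% with cell ATP level not reduced by more than half and red fluorescence within 50% of control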; note: strong numbers were not always called active
#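 Read-out: GFP/RFP fluorescence ratio; Test system: RFP-PRO-GFP reporter HT1080 cells; Compound dosing: single-point 20 µM compound, 1% DMSO; Times: overnight compound exposure at 37 °C.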
# CSC inhib: cancer stem cell viability inhibitors, primary screen, luminescence | cancer stem cell-like cells viability | inhibition, % at 7.5 µM | 1.1% of 300,000 active | AID 2717, 2010;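 active = mean at 75% or more and at least half the replicates too; inconclusive = mean and replicates disagree; tested in HMLE shEcad cells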;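 note: 0% = median of negative and 100% = median of positive control wells; the first replicate is given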
# eIF4H FP inh: human eIF4H binding inhibitors, primary screen, translation initiation inhibitor project, biochemical, uHTS, fluorescence polarization | eIF4H fluorescence polarization binding assay | 0.94% of 290,000 active | inhibition, % at 35 µM;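 active = 50% or more with normal probe brightness, or confirmed in later tests; inconclusive = above 50% with abnormal brightness, or retests that disagree; inactive = below 50% or failed in later tests; about a fifth of its hits are not listed in these tables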;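 note: calls also rest on retests at 20 µM and on dose response follow-up; 0% = protein and probe with vehicle and 100% = probe without protein; strong numbers were not always called active; many hits fall short of the cut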
# Rce1 inhib: yeast Rce1p protease inhibitors, primary screen, biochemical, fluorescence, cell-free homogeneous; CAAX prenyl protease 2 (Saccharomyces cerevisiae (strain ATCC 204508 / S288c)), Q03530; yeast membranes, quenched prenylated peptide cleavage fluorescence; calls only; 0.27% of 290,000 active; AID 2563, 2010;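 active = fall in fluorescence gain of 50% or more versus controls, with final raw signal at or below 3038400; inconclusive = same 50% fall but final raw signal above 3038400; inactive = fall in fluorescence gain under 50%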;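 note: plate controls were neutral control wells for no effect and wells lacking membranes for full effect; tested at 10 µM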
# PABP polyA inh: PABP poly(A) RNA binding inhibitors, primary screen, biochemical, fluorescence polarization, uHTS; Polyadenylate-binding protein 1 (Homo sapiens), P11940; inhibition, % at 35 µM; 1% of 290,000 active; AID 2014, 2009;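 active = 50% or more with normal probe brightness, or confirmed in later tests; inconclusive = above 50% with abnormal brightness, or retests that disagree; inactive = below 50% or failed in later tests; about a fifth of its hits are not listed in these tables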;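 note: calls also rest on retests at 20 µM and on dose response follow-up; controls were probe without protein and protein plus probe with vehicle; some compounds called inactive have numbers as strong as hits; many hits fall short of the cut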
# Target sequence (P11940 whole entry, looked up): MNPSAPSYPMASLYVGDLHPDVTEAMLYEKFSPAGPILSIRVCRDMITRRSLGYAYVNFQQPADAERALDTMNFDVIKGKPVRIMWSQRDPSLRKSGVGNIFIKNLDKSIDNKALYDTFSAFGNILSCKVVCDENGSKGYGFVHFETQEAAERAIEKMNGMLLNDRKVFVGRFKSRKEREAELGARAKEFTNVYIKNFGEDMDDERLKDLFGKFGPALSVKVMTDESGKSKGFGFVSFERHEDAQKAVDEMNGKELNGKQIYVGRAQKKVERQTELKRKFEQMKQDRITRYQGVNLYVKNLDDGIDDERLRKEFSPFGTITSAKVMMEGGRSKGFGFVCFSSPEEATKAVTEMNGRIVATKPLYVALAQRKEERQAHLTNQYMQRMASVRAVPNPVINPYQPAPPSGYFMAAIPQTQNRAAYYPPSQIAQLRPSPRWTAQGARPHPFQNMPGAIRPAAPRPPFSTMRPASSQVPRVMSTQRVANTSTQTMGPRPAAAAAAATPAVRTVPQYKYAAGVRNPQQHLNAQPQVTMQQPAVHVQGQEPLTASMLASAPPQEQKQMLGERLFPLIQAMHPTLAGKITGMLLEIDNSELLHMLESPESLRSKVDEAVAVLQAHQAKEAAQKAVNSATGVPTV
# UUG fidelity: modulators of yeast start codon fidelity, primary screen, whole organism, S. cerevisiae, single point, plate reader | S. cerevisiae UUG-firefly luciferase reporter, luminescence/redox ratio | activity score, % at 18.7 µM | 0.13% of 350,000 active;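 active = replicate mean at a twofold rise or more, about +100% in these data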;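 note: firefly luciferase made from a UUG start codon reports start codon fidelity; reporter light over untreated wells divided by growth signal over untreated wells; some hits fall short of that in this replicate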
# MT1-MMP act inh RFP: recorded beside MT1-MMP act inh, whose call it bears; RFP signal change, %; measured here: RFP expression control read;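 0 = vehicle wells; hits needed this value within 50% of zero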
# * hit, by the source's call; i = inactive; ? = inconclusive; . = not tested or not shown. Rows are unselected (roughly 2.9% active in at least one column).
SMILES,HIV Env fusion,MT1-MMP act inh,MT1-MMP act inh RFP,CSC inhib,eIF4H FP inh,Rce1 inhib,PABP polyA inh,UUG fidelity
Cc1cc(N2C(=O)C(=O)/C(=C(/O)c3ccc(F)cc3)C2c2cccc(Br)c2)no1 (stereo unspecified),-58,-3,0,15,1,i,-5,-15
CC(C)C(=O)Nc1cccc(NC(=S)NC(=O)c2ccccc2Cl)c1,-35,3,-6,7,-9,i,9,-12
O=C(O)c1cc(S(=O)(=O)NC(CO)C(O)c2ccc([N+](=O)[O-])cc2)ccc1Br (stereo unspecified),8,0,-1,-7,-15,i,2,-16
Cc1ccc(C)c(CN2CCC(CNC(=O)Nc3cccc(Cl)c3C)CC2)c1,25,7,1,-4,-5,i,-2,3
Cc1c(C)c2ccc(OCC(=O)N3CC[C@@]4(O)CCCC[C@H]4C3)c(C)c2oc1=O,.,-2,2,-4,15,i,9,-17
CCOc1ccc(N2CC(C(=O)Nc3ccccn3)CC2=O)cc1 (stereo unspecified),1,6,9,-2,-6,i,-3,.
COC(=O)c1ccccc1CSc1nsc(C)c1C#N,24,-2,-1,0,3,i,12,3
Cc1ccc(C(=O)N/N=C/C=C/c2ccccc2)cc1,-22,9,8,5,-6,i,-18,.
COc1nccnc1NS(=O)(=O)c1ccc(N=Cc2c(C)[nH]n(-c3ccc(C)c(C)c3)c2=O)cc1,.,7,3,13,8,i,6,.
Cc1cc(C)nc(SCc2cn3ccccc3n2)n1,0,3,4,-4,-5,i,11,-25
O=C(COC(=O)CCC(=O)c1ccccc1)Nc1nnc(-c2ccccc2)o1,-5,-1,2,14,.,i,.,-4
O=C(CCc1nnc(Cc2ccc3c(c2)OCO3)o1)NC(c1ccccn1)C(F)(F)F (stereo unspecified),27,1,0,0,-4,.,-2,-9
COc1cccc(-c2cnc3c(NC(C)=O)cc(-c4ccncc4)cn23)c1,29,-1,-1,.,.,.,.,-11
O=C(Cn1cc2c(n1)CCCC2)N1CCOCC1,-10,2,5,-13,9,i,3,-17
O=C(Cn1c(=O)c2cccn2c2ccc(F)cc21)N1CCN(c2ccc(F)cc2)CC1,-4,-1,-3,0,-3,i,5,.
CCOC(=O)C1CCCN(C(=O)CCc2nnc(-c3ccc(C(C)=O)s3)o2)C1 (stereo unspecified),-64,0,-1,.,-9,i,-5,-11
CCOC(=O)C(=O)NCC(c1cccs1)S(=O)(=O)c1ccc(Cl)cc1 (stereo unspecified),1,-2,1,0,6,i,6,-13
CC(Oc1cccc([N+](=O)[O-])c1)C(=O)NCCC1=CCCCC1 (stereo unspecified),.,-4,-2,-16,.,.,.,-5
O=c1oc(-c2cccs2)nc2sc3c(c12)CCCCC3,-17,-2,0,-3,-11,i,1,-8
CN(CC(=O)NCc1ccncc1)S(=O)(=O)c1ccc(F)cc1,.,4,1,4,-3,i,6,-13
CCOc1ccc(C(=O)COC(=O)c2c(-c3ccccc3)noc2C)cc1,36,-2,-4,.,.,i,.,.
O=C(C1=C(O)C(=O)N(CCN2CCOCC2)C1c1cccs1)c1cc2ccccc2o1 (stereo unspecified),1,5,12,-13,.,i,.,-10
COCCNC(=O)C(c1ccncc1)N(C(=O)Cn1nnc2ccccc21)c1ccc(OC)cc1 (stereo unspecified),-10,4,2,1,0,i,-5,-5
COc1ccc(-c2nc(C(N)=O)c3[nH]c(=O)n(-c4cccc(C)c4)c3n2)c(OC)c1,-2,-6,-4,-9,-12,i,8,-22
O=C1C=C(c2ccccc2)CC(/C=C/c2ccccc2)C1 (stereo unspecified),-27,0,-4,2,0,i,0,.
# (more compounds)
SMILES,HIV Env fusion,MT1-MMP act inh,MT1-MMP act inh RFP,CSC inhib,eIF4H FP inh,Rce1 inhib,PABP polyA inh,UUG fidelity
Cc1ccc(-c2nc3cccnc3s2)cc1NS(C)(=O)=O,-23,-5,-1,4,-2,i,1,-16
Cc1ccc(NC(=O)c2ncn(CCCNCC3CCCO3)n2)cc1C (stereo unspecified),?,3,6,.,.,.,.,-17
Fc1ccccc1N1CCN(C2CCN(Cc3c[nH]c4ccccc34)CC2)CC1,.,2,-2,44,-2,i,-12,-24
CC(=O)NC(CCS(C)(=O)=O)C(=O)Nc1cccc(Cl)c1Cl (stereo unspecified),6,6,5,-12,9,i,0,-10
CCOC(=O)c1ccc(NC(=S)NC2CCCC2)cc1,34,2,-1,.,6,i,11,.
Cc1ccc(C(=O)N2CCC(C)CC2)cc1S(=O)(=O)N1CCCCC1,11,2,-9,-8,8,i,0,-3
C=CCNc1nc(-c2ccccc2)nc(-n2ccnc2)n1,-83,18,3,-5,4,i,-3,-15
CCOC(=O)C1CCCN(S(=O)(=O)c2c(C)[nH]c(C)c2C(=O)N2CCCC2)C1 (stereo unspecified),10,0,6,-17,-5,i,0,2
CCCOC(=O)C1C2C=CC(C2)C1C(=O)OCC(=O)c1ccccc1 (stereo unspecified),-10,0,3,-5,-1,i,7,-5
COc1ccccc1NC(=O)COc1ccccc1,.,-2,-1,-6,2,i,-4,-10
O=C(CN1C(=O)NC2(CCCCC2)C1=O)N1CCc2ccccc2C1,4,2,4,18,-2,i,-3,-4
COc1ccc(N(C(=O)c2snc(C(N)=O)c2N)C(C(=O)NC2CCCC2)c2cccs2)c(OC)c1 (stereo unspecified),3,-10,-7,6,11,i,-2,-2
CCC(Oc1ccccc1)C(=O)Nc1nnc(S(=O)(=O)N2CCCCC2)s1 (stereo unspecified),6,.,.,-7,0,i,-11,-3
CCN(CC(=O)Nc1ccccc1Br)Cc1nc2ccccc2c(=O)[nH]1,.,-3,-2,-18,2,i,-10,.
CCOc1ccc2c(c1)C(c1ccc(C)cc1)=NNC(c1ccc(OC)cc1)=N2,.,6,-2,49,12,i,26,-26
CCOC(=O)N1CCN(S(=O)(=O)c2ccc(OC)c(Cl)c2Cl)CC1,.,5,-3,4,-4,i,8,10
CCOC(=O)c1ccc(/[N+]([O-])=C/c2ccccc2)cc1,-44,7,3,14,.,.,.,-6
O=C(Nc1ccc(Br)cc1)C1CC=CCC1C(=O)OCC1CCCO1 (stereo unspecified),.,7,6,-15,19,i,-2,37
O=C(Cn1cc(C(F)(F)F)ccc1=O)N1CCN(S(=O)(=O)c2ccccc2)CC1,-13,0,4,-6,-2,i,-11,-12
O=C(Nc1cccc2ccccc12)N1CCN(c2ccccc2)CC1,.,2,3,-5,0,.,-8,-4
COc1ccc(C(=O)NC2CCCCC2)cc1S(=O)(=O)N1CCCC1,-23,6,9,-3,3,i,-1,7
O=C1c2cccc3c(O)ccc(c23)C(=O)N1Cc1ccco1,0,-89,2,.,?,i,?,-14
O=c1[nH]ncc2c3ccccc3n(Cc3cccc(Cl)c3)c12,5,-27,-5,-3,?,i,-10,.
O=C(O)c1cccc(Nc2ncnc3ccccc23)c1,.,2,2,0,0,i,8,-16
CCC(C(=O)Nc1cccnc1)c1ccccc1 (stereo unspecified),-13,-2,-1,-7,-12,i,-1,4

# Quoted at random: 2 compounds from above
SMILES,HIV Env fusion,MT1-MMP act inh,MT1-MMP act inh RFP,CSC inhib,eIF4H FP inh,Rce1 inhib,PABP polyA inh,UUG fidelity
CCCOC(=O)C1C2C=CC(C2)C1C(=O)OCC(=O)c1ccccc1 (stereo unspecified),-10,0,3,-5,-1,i,7,-5
O=c1[nH]ncc2c3ccccc3n(Cc3cccc(Cl)c3)c12,5,-27,-5,-3,?,i,-10,.

# Carrying on.
SMILES,HIV Env fusion,MT1-MMP act inh,MT1-MMP act inh RFP,CSC inhib,eIF4H FP inh,Rce1 inhib,PABP polyA inh,UUG fidelity
CN(CCC#N)C(=O)COC(=O)/C=C/c1cccs1,0,2,1,-16,-2,i,2,-8
CCn1ncc(/C=C/C(=O)NCc2cn(C)nc2C)c1C,-17,-1,5,1,-11,i,-10,-8
CC(=O)C1=C(O)C(=O)N(CCc2c[nH]c3ccccc23)C1c1cccc(O)c1 (stereo unspecified),0,1,4,-6,-5,i,18,-15
Cc1ccc(S(=O)(=O)N2CCOC2CNC(=O)C(=O)NCc2ccc3c(c2)OCO3)cc1 (stereo unspecified),24,2,-6,-5,1,i,5,-19
CCOCC(=O)N1CCC(Cc2ccccc2)CC1,?,3,3,29,2,i,-2,.
O=[N+]([O-])c1cccc(-c2ccc(CN3CCCCC3)o2)c1,3,0,2,-8,4,i,3,-11
O=S(=O)(NCCc1csc(-c2cccnc2)n1)c1cc(F)ccc1F,15,-3,-3,1,-4,i,-1,-11
CCCCC[C@H]1CN(Cc2ccccc2)C(=O)[C@@H]1CC(=O)NCc1ccc(OC)cc1,9,-7,-15,16,-1,i,13,15
O=C(Nc1ccc(F)c(Cl)c1)Nc1nnc([C@@H]2O[C@H](CO)[C@@H](O)[C@H]2O)s1,5,-7,-6,.,.,.,.,-16
CSc1ccccc1OCc1cc(C(=O)N(C)Cc2ccc3nsnc3c2)no1,-133,-2,-2,0,-2,i,0,-4
COc1ccc(S(=O)(=O)N2CCCN(C)CC2)cc1,-20,-4,0,1,0,i,-3,-9
CCOC(=O)c1cc(-c2ccccc2C)nn1Cc1cc(C)no1,-84,-2,-2,1,.,.,.,2
COc1ccc(-c2cc(C(F)(F)F)c(C#N)c(SCC(=O)O)n2)cc1OC,.,.,.,-2,9,i,-9,.
Cc1sc2ncnc(OCC(=O)N3CCN(S(=O)(=O)c4ccccc4)CC3)c2c1C,5,0,1,-6,-2,i,5,-14
CC(c1nnc(Sc2nnnn2-c2ccccc2)n1-c1ccc(F)cc1)N(C)C (stereo unspecified),22,0,1,8,2,.,8,-7
Cc1ccc(S(=O)(=O)c2nc(S(C)(=O)=O)sc2N2CC(C)OC(C)C2)cc1 (stereo unspecified),.,-2,0,-16,-16,i,3,-14
CC(O)c1nc2ccccc2n1C/C=C/c1ccccc1 (stereo unspecified),11,1,4,-6,6,i,4,-10
O=c1c2cc(Cl)ccc2[nH]c(=S)n1Cc1ccccn1,-22,0,2,-5,2,i,1,.
CN(C)S(=O)(=O)c1ccc(-c2csc(-c3cccnc3)n2)cc1,-26,-2,-4,4,-7,.,-3,.
O=C(CC1CS(=O)(=O)CC1CC(=O)Oc1ccccc1F)Oc1ccccc1F (stereo unspecified),17,3,5,1,5,i,-4,.
Cc1ccc(C(=O)CSc2nc(C)cc(=O)[nH]2)cc1,-28,2,4,-6,-1,i,-1,-10
COC(=O)c1cc2c([nH]c1=O)CCCC2=O,-3,2,5,.,.,.,.,1
Cc1cc(F)ccc1C(O)c1ncc(-c2ccccc2)[nH]1 (stereo unspecified),6,-10,-2,.,.,.,.,2
CC(=NCCc1ccccc1)C1=C(O)C(c2ccccc2)OC1=O (stereo unspecified),6,1,1,-4,-8,.,-9,.
COC(=O)c1cccc(C23CC4(C2)[C@H](CN(Cc2cccnc2)[C@@H]4c2ccccc2)C3c2ccc(Cl)nc2)c1 (stereo partly specified),4,-10,-18,18,-1,i,-7,-3
O=C(NCc1ccc2c(c1)OCO2)c1c(-c2ccsc2)sc2ccccc12,22,4,-7,58,.,.,.,-19
COc1ccc(Cl)cc1N=Cc1c(O)c2ccccc2oc1=O,9,-6,-1,-8,0,i,-3,-1
